Source: PubChem BioAssay
Vif TR-FRET: inhibitors of Vif binding to APOBEC3G peptide, primary screen, biochemical, TR-FRET, GST-Vif 1-94, biotin-A3G peptide, dose response retest (AID 1117319); Virion infectivity factor (Human immunodeficiency virus type 1 group M subtype B (isolate …; TR-FRET GST-Vif / biotin-A3G peptide binding; higher % means a stronger effect; test concentration not given here; strong numbers were not always called active; inhibition, %, or IC50 in µM where a hit was titrated; hit rate 0.57% among 260,000;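 active = above the screen mean plus three standard deviations and confirmed in dose response; inconclusive = results disagree or hit not tested in dose response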;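 note: Vif residues 1-94 fused to GST binding biotinylated APOBEC3G peptide 110-148; 0% = full assay without inhibitor and 100% = GST in place of GST-Vif; retest series ran down from 100 µM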
ALR H2O2 inh: inhibitors of human ALR sulfhydryl oxidase, primary screen, biochemical, H2O2 detection, HRP-luminol luminescence, single point; FAD-linked sulfhydryl oxidase ALR (Homo sapiens), P55789; purified ALR, DTT oxidation; inhibition, % (test concentration not listed); hit rate 3.8% among 290,000; AID 485317, 2010;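 active = mean and each replicate at 75% or more; inconclusive = only one of the two met; inactive = neither met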;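 note: stock transfer was 7.5 nL into about 7.5 µL; 0% = neutral wells and 100% = wells with inactivated enzyme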
LANA-H2B inh: blockers of LANA interaction with H2A/H2B – biochemical, FP readout, HTS, primary screen; Protein LANA1 (Human herpesvirus 8 type P (isolate GK18)), Q9QR71; cell-free LANA-H2A/H2B peptide, fluorescence polarization; inhibition, % (concentration not given with the values); hit rate 0.6% among 320,000; AID 2629, 2010; in the data active = inhibition mostly above about 10%, no sharp cut-off; inactive = mostly below about 6.7%;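 note: stock transfer was 7.5 nL into about 10 µL; 0% = median of vehicle wells and 100% = median of positive control wells; one replicate is shown; the record names a cut of 25% in any replicate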
Target sequence (Q9QR71 whole entry, looked up): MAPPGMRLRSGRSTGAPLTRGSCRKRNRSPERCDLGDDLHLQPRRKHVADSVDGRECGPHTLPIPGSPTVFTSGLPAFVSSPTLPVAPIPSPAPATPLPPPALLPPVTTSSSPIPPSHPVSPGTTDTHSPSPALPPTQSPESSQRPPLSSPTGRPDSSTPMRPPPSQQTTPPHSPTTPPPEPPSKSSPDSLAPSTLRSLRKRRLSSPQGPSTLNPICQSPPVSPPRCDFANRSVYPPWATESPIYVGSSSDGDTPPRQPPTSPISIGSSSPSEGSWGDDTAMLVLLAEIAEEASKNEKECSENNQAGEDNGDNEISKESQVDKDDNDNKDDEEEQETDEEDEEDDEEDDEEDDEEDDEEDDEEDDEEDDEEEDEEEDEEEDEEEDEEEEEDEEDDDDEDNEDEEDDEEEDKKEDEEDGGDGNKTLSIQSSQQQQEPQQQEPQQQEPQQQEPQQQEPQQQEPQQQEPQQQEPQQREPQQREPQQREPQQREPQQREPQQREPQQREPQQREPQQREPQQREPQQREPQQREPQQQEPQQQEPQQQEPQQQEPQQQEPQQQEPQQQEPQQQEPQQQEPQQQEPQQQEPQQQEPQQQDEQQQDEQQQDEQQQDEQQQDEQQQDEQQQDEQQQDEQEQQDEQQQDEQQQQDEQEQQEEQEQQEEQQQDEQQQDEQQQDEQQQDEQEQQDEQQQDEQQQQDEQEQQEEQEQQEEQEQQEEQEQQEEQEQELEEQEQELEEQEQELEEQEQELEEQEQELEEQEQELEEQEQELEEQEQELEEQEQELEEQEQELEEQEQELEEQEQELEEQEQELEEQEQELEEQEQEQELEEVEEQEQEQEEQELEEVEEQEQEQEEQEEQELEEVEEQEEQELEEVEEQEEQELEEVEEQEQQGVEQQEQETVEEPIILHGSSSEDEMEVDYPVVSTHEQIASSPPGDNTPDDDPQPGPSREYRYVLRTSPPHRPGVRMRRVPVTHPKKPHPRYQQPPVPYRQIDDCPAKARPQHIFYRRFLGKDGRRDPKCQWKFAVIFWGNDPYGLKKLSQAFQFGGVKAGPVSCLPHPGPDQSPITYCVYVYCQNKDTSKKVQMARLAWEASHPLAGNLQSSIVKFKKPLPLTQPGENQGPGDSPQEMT
RanGTP-Imp inh: inhibitors of RanGTP-importin-beta interaction, primary screen, biochemical, FRET, CFP-Ran, YFP-importin-beta, homogeneous; Ran GTPase (GTP-bound) - importin-beta complex; cell-free CFP-Ran/YFP-importin-beta FRET ratio; inhibition, % (concentration not given with the values); hit rate 1.1% among 300,000;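 active = most replicates above 15%; inconclusive = exactly half above 15%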;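 note: 0% = DMSO wells and 100% = Ran loaded with GDP instead of GTP; wells of about 40 µL received 100 nL stock; the first replicate is given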
Calb FLC: C. albicans growth inhibition with fluconazole, primary screen, CaCi-2 strain, Alamar Blue fluorescence; C. albicans CaCi-2 (fluconazole-resistant clinical isolate) + fluconazole, 48 h; growth inhibition, % (no concentration beside the values); hit rate 0.57% among 300,000; AID 1979, 2009;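 active = most replicates above 75%; inconclusive = exactly half above 75%; inactive = most below 75%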;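 note: all wells also contain fluconazole at 8 µg/ml as a sub-toxic cotreatment; 0% = median of DMSO wells and 100% = median of geldanamycin control wells; wells of about 8 µL received 7.5 nL stock; the first replicate is given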
B2AR ag: beta2AR agonists driving receptor internalization, primary screen, cell-based, FAP fluorogen, flow cytometry | Beta-2 adrenergic receptor (Homo sapiens), P07550 | Am2.2-beta2AR cells; reference of the scale not given here | response, % (concentration not given with the values) | hit rate 0.43% among 340,000 | AID 504454, 2011;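 active = response above a set limit, near 3 SD of response in nonfluorescent compounds, cut at about 42% in these data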;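 note: stock transfer was 100 nL into about 11 µL; a reference agonist was the positive control; negative values mostly stem from fluorescent compounds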
HNF4A DNA FP: change in binding of human HNF4A to DNA, primary screen, biochemical, fluorescence polarization, FITC-DNA. Hepatocyte nuclear factor 4-alpha (Homo sapiens), P41235. 1 h. activity change, % at 10 µM. hit rate 0.3% among 360,000. AID 1224865, 2016; in the data active = activity change above about 30%, passing the limit was not always enough;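 note: controls were the assay level and a saturating level of protein; the project sought stronger binding though the title names inhibitors; some compounds called inactive have numbers as strong as hits; positive values seem to mean higher polarization but the record does not say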
An asterisk follows results filed as active; ? = inconclusive; . = no result given.

SMILES	Vif TR-FRET	ALR H2O2 inh	LANA-H2B inh	RanGTP-Imp inh	Calb FLC	B2AR ag	HNF4A DNA FP
C[C@]12CC[C@@H]3c4cc(O)c(O)cc4CC[C@H]3[C@@H]1CC[C@@H]2O	-8%	72	29*	-4.0	.	7	2.7
COCCN=C(NS(=O)(=O)c1cccs1)c1ccccc1Cl	.	.	-5.9	.	.	-4	2.8
CCC(=O)Nc1nc(-c2ccc3c(c2)OCCO3)cs1	4%	86*	-0.7	7.1	-6	-20	-1.5
N#Cc1ccc(NCC(=O)Nc2ccc3c(c2)OCCO3)cc1	0%	-3	-1.3	0.6	-2	0	-0.8
CC(Sc1n[nH]c(=O)n1Cc1ccccc1)C(=O)NC1CCCCC1C (configuration not stated)	1%	7	0.2	.	-6	7	1.9
O=C(CSc1nnc(-c2cccnc2)o1)c1cc2ccccc2oc1=O	23%	-1	0.5	-1.9	-9	13	1.8
Cc1cc(Br)ccc1NC(=O)CNC(=O)CN1C(=O)NC2(CCCCCC2)C1=O	0%	-1	0.0	-0.9	8	5	2.0
O=S(=O)(Nc1cccc(Br)c1)c1cccc2nsnc12	.	-4	-4.1	-0.8	27	2	-1.2
O=C(Nc1nc2ccccc2[nH]1)c1ccc(F)c(S(=O)(=O)N2CCOCC2)c1	.	2	3.6	-2.4	-6	-36	-1.1
COc1cc(C(C(=O)NC2CCCC2)N(C(=O)Cc2cccs2)C2CC2)cc(OC)c1OC (configuration not stated)	-11%	-3	2.3	-1.5	?	-8	-5.3
CCN(CC)C(=O)C1CCN(S(=O)(=O)c2ccc(-n3cnnn3)cc2)CC1	-1%	10	-2.0	3.9	3	-8	2.9
Cc1cc(C)c2nc(NNC(=O)c3cc(-c4cccs4)nc4ccccc34)sc2c1	3%	3	1.4	1.6	82*	12	2.1
Cc1cc(C(=O)NCCN2CCOCC2)ccc1[N+](=O)[O-]	4%	3	2.9	-1.2	1	8	0.7
O=C(OCc1cnc(Cl)s1)c1cccc(Cl)c1	11%	-8	-0.6	1.3	11	0	-2.2
Cc1ccc(-c2nc3cnccn3c2Nc2ccc3c(c2)OCO3)cc1	19%	.	5.8	-4.9	-2	6	2.8
Cc1cccc(NC(=S)N2CCCCC2c2cccnc2)c1C (configuration not stated)	28%	-2	0.0	3.1	-5	8	1.5
Cc1ccc(C)c(S(=O)(=O)NCc2ccc(C(=O)N3CCOCC3)cc2)c1	.	1	0.7	3.7	-4	0	2.7
CSc1nnc2c(n1)c(C)nn2-c1cccc(C)c1	3%	95*	6.5	3.6	7	-3	1.4
NN1C(=O)/C(=C2/Sc3ccccc3N2CCCS(=O)(=O)O)SC1=S	.	-9	0.2	14	33	1	0.3
COc1ccc(CCNC(=O)CSc2nc(N)c(C#N)c(-c3cccs3)c2C#N)cc1OC	-17%	-2	-0.1	7.2	-1	-17	-1.9
COc1cccc(C(=O)O/N=C(\N)c2ccccn2)c1	-2%	3	5.9	-0.9	1	-2	-2.6
CN1CCN(C(=O)/C=C/c2c(F)cccc2Cl)CC1	0%	8	1.0	-1.4	-5	-4	-0.7
Cc1ccccc1C(=O)NNC(=O)c1ccc2nc[nH]c2c1	12%	-13	2.5	-1.4	-5	-5	-2.6
Cc1sc2nc(-c3ccccc3)oc(=O)c2c1C	.	17	1.6	0.1	26	8	-0.5
O=C(N/N=C/c1ccc([N+](=O)[O-])o1)C(O)c1ccccc1 (configuration not stated)	-3%	-19	-3.3	1.7	-2	-19	-1.1

Brought forward from above: three compounds, then new ones.
SMILES	Vif TR-FRET	ALR H2O2 inh	LANA-H2B inh	RanGTP-Imp inh	Calb FLC	B2AR ag	HNF4A DNA FP
Cc1ccccc1C(=O)NNC(=O)c1ccc2nc[nH]c2c1	12%	-13	2.5	-1.4	-5	-5	-2.6
Cc1sc2nc(-c3ccccc3)oc(=O)c2c1C	.	17	1.6	0.1	26	8	-0.5
O=C(N/N=C/c1ccc([N+](=O)[O-])o1)C(O)c1ccccc1 (configuration not stated)	-3%	-19	-3.3	1.7	-2	-19	-1.1
O=C(NCc1ccccn1)c1cccc(S(=O)(=O)N2CCc3ccccc32)c1	0%	-2	1.8	.	.	-3	3.5
COC(=O)c1c(NC(=O)C2CCCCC2)sc2c1CCN(C(C)C)C2	.	1	-3.1	57*	-2	-7	1.1
CC(=O)Nc1ccc(NC(=O)Cn2c(CC(=O)N3CCCC3)nc3ccccc32)cc1	1%	-1	-1.0	-0.1	-10	13	-1.9
COc1ccc(S(=O)(=O)NCc2cccnc2)cc1C	.	-7	1.8	1.4	3	7	-0.3
Cc1ccc(-n2c(=O)cc(N3CCc4ccccc4C3)[nH]c2=O)cc1	0%	0	-0.2	40*	14	-4	3.0
O=C1CCCC(=O)C1=Cc1c[nH]c2ccccc12	-1%	-11	3.1	-0.5	-1	-3	0.1
CCCN(C(=O)COC(=O)C12CCC(=O)N1c1ccccc1S2)c1c(N)n(Cc2ccccc2)c(=O)[nH]c1=O (configuration not stated)	.	-4	2.3	4.7	-2	-2	2.2
COc1cc(C(=O)NCC(c2ccco2)N2CCc3ccccc32)cc(OC)c1OC (configuration not stated)	-1%	93*	-1.7	3.7	3	-3	-1.7
O=C(O)c1cc2ccc3ccccc3c2[nH]1	19%	-26	2.5	3.2	31	7	0.1
CCN(CC)c1ccc(/C=N/NC(=S)NCc2ccc(OC)cc2)cc1	.	21	13	0.3	?	0	4.2
CC(=O)C1=C(O)C(=O)N(CCC(=O)O)C1c1ccccc1Cl (configuration not stated)	22%	-22	2.2	?	31	2	3.2
CCOc1cccc(/C=N/NC(=O)c2cccnc2)c1O	.	?	2.3	-2.3	-22	7	1.3
CN(C)c1cccc(C(=O)Nc2cc(C(F)(F)F)ccc2-n2cnc3ccccc32)c1	7%	.	.	0.5	2	0	-1.1
COc1ccc(N2CCN(C(=O)[C@H](C)NC(=O)c3ccccc3Cl)CC2)cc1	.	45	-3.8	-1.7	2	-39	-2.1
Cc1ccc(Nc2n[nH]c(C)c2[N+](=O)[O-])cc1C	15%	1	5.2	-0.2	-3	-1	-3.1
Cc1ccc(CN2CCN(Cc3cc4ccccc4o3)CC2CCO)cc1 (configuration not stated)	.	.	1.4	9.4	1	-6	1.9
O=C(Nc1cccc(-c2cn3ccccc3n2)c1)c1cccs1	-1%	.	-0.7	-2.8	39	-8	6.1
NS(=O)(=O)c1cccc(NC(=O)CN2CCCc3ccccc32)c1	6%	16	-1.7	-11	-1	3	4.5
Cc1ccccc1C(=O)NC(=S)NCC(=O)c1ccccc1	-6%	4	14	?	9	-2	5.3
O=C(NCc1cccnc1)c1cnn2ccccc12	-2%	-6	-0.5	4.0	-2	0	2.4
Cc1ccc(C(=O)CCNc2cccc(Br)c2)o1	16%	21	-3.4	2.5	3	9	0.4
Cc1cccc(NC(=O)/C(C#N)=C/c2ccc[nH]2)c1C	.	0	-5.8	-0.6	20	-10	2.6
O=C(Nc1ncccn1)c1cc(-c2ccc(F)cc2)nc2ccccc12	17%	-2	-4.6	?	13	0	4.0
CCn1c(C(=O)N2CCC(C(=O)NCc3cccs3)CC2)cc2sccc21	0%	-7	2.3	-1.8	5	-5	1.8
Cc1oc(-c2ccccc2)nc1CS(=O)CC(=O)N1CCc2ccccc2C1 (configuration not stated)	22%	99*	4.7	0.4	4	-2	-2.8
The listing continues.
SMILES	Vif TR-FRET	ALR H2O2 inh	LANA-H2B inh	RanGTP-Imp inh	Calb FLC	B2AR ag	HNF4A DNA FP
O=C(CCC1CCCN(C(=O)c2ccc3c(c2)OCO3)C1)N1CCN(c2ccccn2)CC1 (configuration not stated)	25%	37	-0.5	1.6	-3	-3	2.8
Cc1cc(C)c(C)c(S(=O)(=O)N2CCN(C(=O)c3cc(=O)[nH]c4ccccc34)CC2)c1C	2%	-2	-1.6	3.5	-2	22	0.5
Cc1nn(-c2nc3ccccc3s2)c(N)c1Sc1ccc(F)cc1	-1%	-2	3.6	-1.8	15	6	0.8
CS(=O)(=O)Nc1ccc(C(=O)NCC2CCCO2)cc1 (configuration not stated)	3%	1	1.4	8.3	-10	2	-0.9
COc1ccc(N(CC(=O)N2CCCC(C)C2)S(=O)(=O)c2c(C)nn(C)c2C)cc1 (configuration not stated)	?	-2	0.9	7.3	-1	13	1.4
CCCN1C(=O)/C(=C2\SC(=S)N(c3c(C)n(C)n(-c4ccccc4)c3=O)C2=O)c2ccccc21	?	-8	5.4	1.2	3	.	.
CC(=O)Nc1ccc(N2C(=O)CSC2c2c(F)cccc2Cl)cc1 (configuration not stated)	-6%	72	-3.9	?	-3	-9	-0.8
O=C(O)CC1(CC(=O)Nc2ccc(F)cc2F)CCCCC1	-9%	-18	-1.0	1.1	25	-4	3.6
CCN(c1ccccc1)S(=O)(=O)c1cc2c(cc1C)NC(=O)CO2	.	.	0.2	14	-6	3	-0.8
COc1ccc(OC)c([N+](=O)[O-])c1C(N)=O	?	-25	-0.6	3.4	-5	-1	-21
Cc1cccc(N2CCN(C(=O)c3noc4c3COc3ccc(C)cc3-4)CC2C)c1 (configuration not stated)	.	-6	2.7	2.2	2	-4	2.8
O=C(N/N=C/c1cc(Br)c(O)c(Br)c1)c1cc2c(ccc3ccccc32)o1	.	-9	3.5	.	109*	25	-17
COC(=O)CNC(=O)COC(=O)/C=C/c1ccc(F)cc1	4%	-8	2.4	?	-19	10	-5.8
C/C(=N\NC(=S)Nc1c(C)cccc1C)c1ccc(OC(F)F)cc1	5%	1	-1.2	-1.6	-1	5	2.8
Nc1nc(N)c(N=Nc2ccccc2)c(=O)[nH]1	-6%	.	.	.	.	-1	2.0
COc1ccc(C(=O)NCC(C)C)c(OC)c1	-9%	3	4.7	-2.7	3	1	-0.5
O=C(CCSCc1ccccc1)Nc1ccc2c(c1)OCCO2	.	47	1.4	1.7	-16	10	3.3
CCCCNc1c(-c2ccc(SC(C)CC)c(OC)c2)nc2ccc(C)cn12 (configuration not stated)	.	.	-1.4	3.0	17	22	2.2
COCCNC(=O)CN(C(=O)CCC(=O)Nc1cc(C)on1)c1ccccc1C	-3%	0	-3.3	-0.7	-2	34	1.6
O=C(CSc1nc(=O)[nH]c2c1CCCC2)Nc1cc(C(F)(F)F)cc(C(F)(F)F)c1	4%	-15	-2.0	3.0	13	-2	-4.2
CN(C)CCC#CC1(O)c2ccccc2-c2ccccc21	-1%	-19	2.5	?	-1	-4	-0.6
COc1cc(-c2n[nH]c(=S)n2/N=C/c2cccn2C)cc(OC)c1OC	21%	97*	2.2	3.8	1	7	0.1
O=C(CCn1c(=S)[nH]c2ccccc2c1=O)N1CCOCC1	-4%	85*	-3.9	-1.9	18	-10	-3.3
NC(=O)C1CCN(C(=O)CCc2nc3sc4c(c3c(=O)[nH]2)CCCC4)CC1	7%	49	-4.4	-0.9	12	-9	0.1
O=C(O)c1ccc(-n2nc(C(F)(F)F)cc2-c2cccs2)cc1	-15%	-4	-4.5	2.1	-7	1	-0.7
Cc1ccc(S(=O)(=O)Nc2ccc(O)c(Sc3ncn[nH]3)c2)cc1	4%	99*	1.6	-3.5	10	-1	-2.4
COC(CNC(=O)c1ccc2c(c1)nc(C)n2-c1cc(C)cc(C)c1)OC	-1%	7	-0.9	4.1	6	13	-3.0
CN(/N=C/c1ccncc1)c1cnn(-c2ccc(F)c(Cl)c2)c(=O)c1Cl	-1%	-32	-3.3	1.3	20	4	-2.5
